Assay outcomes (PubChem)
GIV-Gai inh – inhibitors of GIV peptide binding to Galpha-i3, primary screen, biochemical, fluorescence polarization, FITC-GIV GBA peptide, rat Galphai3; Guanine nucleotide-binding protein G(i) subunit alpha-3 (Rattus norvegicus), P08753; 90 min; hits give low values; scaled: aluminum fluoride 0%, vehicle 100%; percent of control (FP), % (no concentration beside the values); actives 0.42% (n = 210,000); AID 1224905, 2016;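 active = replicate mean at 85% of control or lower, very high polarization wells dropped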;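 also: wells of about 15 µL received 100 nL stock; the first replicate is given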
Target sequence (P08753 whole entry, looked up): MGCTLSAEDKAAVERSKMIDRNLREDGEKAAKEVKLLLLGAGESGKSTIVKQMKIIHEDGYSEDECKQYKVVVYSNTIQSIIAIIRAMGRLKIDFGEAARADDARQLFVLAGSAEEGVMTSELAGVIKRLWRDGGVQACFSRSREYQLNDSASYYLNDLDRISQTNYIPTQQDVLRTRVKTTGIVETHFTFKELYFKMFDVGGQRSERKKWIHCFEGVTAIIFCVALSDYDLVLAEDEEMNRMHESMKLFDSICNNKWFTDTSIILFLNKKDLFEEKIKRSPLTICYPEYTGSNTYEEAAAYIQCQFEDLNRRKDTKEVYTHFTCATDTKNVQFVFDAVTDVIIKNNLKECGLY
Sa growth inh – S. aureus growth inhibition at 42 and 30 °C, primary screen, LtaS inhibitor project, RN4220, two temperatures; OD600, 20 h, 42 °C; hits give low values; actives 0.53% (n = 170,000); relative growth, % (no concentration beside the values);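 active = growth at 42 °C up to 50% and 20 or more points under that at 30 °C, or under 10% at both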;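 also: 300 nL library stock went into each well; scaled to the means of positive and negative controls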
HCMV UL50-53 inh – inhibitors of HCMV UL50-UL53 interaction, biochemical, HTRF; normalized percent inhibition; inhibition, % (no concentration beside the values); actives 0.15% (n = 190,000); AID 1918969, 2023;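 active = both replicates at 50% or more, plus weaker picks with an unusually low signal ratio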;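 also: stock transfer was 100 nL into about 20 µL; 0% = negative control wells and 100% = wells with untagged competitor protein; inactives centre near -12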
Sa growth inh second temp – also measured in Sa growth inh; calls as there; relative growth, %; measured here: growth at 30 °C;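 optical density after 20 h as mean of two plates; 100% = untreated growth and lower means inhibition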
Numbers without * were called inactive; / = no result given.

SMILES | GIV-Gai inh | Sa growth inh | Sa growth inh second temp | HCMV UL50-53 inh
O=S(=O)(Nc1ccc(-c2ccc(N3CCCC3)nn2)cc1)c1ccc(Cl)cc1 | 104 | 103 | 97 | /
COc1cccc(NC(=O)CCNC(=O)Cn2ccc3ccccc3c2=O)c1 | 102 | 94 | 89 | 1
c1ccc(CSC2=NCCCN2C2CCCCC2)cc1 | 101 | 89 | 85 | -2
COc1ccc2c(CNC3CCCCCC3)c(C(=O)O)n(Cc3ccccc3F)c2c1 | 112 | 101 | 83 | /
O=C(CCCN1C(=O)c2ccccc2C1=O)Nc1c(C(=O)C2CC2)oc2ccccc12 | 102 | 98 | 90 | -8
CCOc1cc(C=C2C(=O)N(C)C(=O)N(C)C2=O)ccc1OCCOc1cccc(C)c1 | 101 | / | / | -12
O=C(NCc1ccc(Cl)cc1)c1ccc(NC(=O)N2CCSc3ccccc32)cc1 | 102 | / | / | 4
COc1ccc(CN2CCN(C(=O)c3cc(-c4ccccc4)n[nH]3)CC2)cc1F | 97 | / | / | -6
O=C(CCCn1c(=O)c2sccc2n(CC(=O)NCc2ccco2)c1=O)NCc1ccco1 | 102 | 99 | 88 | -12
COC(=O)c1ccc(CSc2nc3ccccc3c(=O)n2N)cc1 | / | 68 | 78 | -6
Cn1cnnc1-c1ccc(N)cc1 | / | 114 | 97 | -7
CCOC(=O)c1c(NC(=O)COCc2cc(-c3ccc(F)cc3)on2)sc(C)c1C | 109 | 91 | 91 | -2
O=C(O)CNC1=NCCCCC1 | / | 89 | 96 | -1
O=S(=O)(NNc1ccnc2cc(Cl)ccc12)c1ccccc1F | / | 83 | 72 | -31
O=C(CCc1nc2cccnc2n1Cc1cccs1)N1CCC2(CC1)OCCO2 | 132 | 101 | 85 | -28
Cn1ncc2c1ncn1nc(-c3ccncc3)nc21 | 104 | 97 | 86 | 5
Cc1cccc(NC(=O)Nc2cccc(C(F)(F)F)c2)n1 | 97 | 84 | 82 | /
CCCCN(CC)c1ncnc2c1sc1nc(N3CCOCC3)c3c(c12)CC(C)(C)OC3 | 102 | 89 | 95 | /
O=C(O)Cc1cc(=O)oc2cc(O)cc(O)c12 | 99 | / | / | -9
O=C1Nc2ccc(S(=O)(=O)N(CCO)CCO)c3cccc1c23 | 105 | 63 | 90 | /
COc1ccccc1NC(=O)c1sc2nc3n(c(=O)c2c1C)N=C(c1cccc(Br)c1)CS3 | 102 | 103 | 82 | /
Cn1c(N)c(C(=S)NC(=O)C2CC2)c(=O)n(C)c1=O | / | 83 | 90 | -1
COc1ccc(CC(=O)Nc2ccc3nc4n(c(=O)c3c2)CCCC4)cc1 | 102 | 91 | 73 | /
COc1ccc(CCNC(=O)c2cn(C)c3ccc(S(=O)(=O)N(C)C)cc3c2=O)cc1OC | 105 | 104 | 93 | -16
COc1ccc(-c2cnnn2-c2ccc(NC(=O)c3c(F)cccc3F)cc2)cc1 | 107 | 69 | 84 | /
CCN(CC)c1nc(N)c2c(N)nc3c(c2c1C#N)C(=O)CN3Cc1ccccc1 | / | 104 | 99 | 5
Cn1c(-c2ccccc2)cnc1NCc1ccccc1O | 108 | 96 | 89 | -9
Cc1ccc(-c2nc3cccnc3n2CCCNC(=O)c2cccnc2)cc1 | 107 | / | / | -20
CCN(CC)c1ccc(NS(=O)(=O)c2cccs2)cc1 | 96 | 120 | 86 | -3
O=C1C2C(C(=O)N1/N=C/c1ccc(N3CCCCC3)o1)C1C=CC2C12CC2 (configuration not stated) | 101 | 99 | 116 | -41
Cn1cnc2cc(NC(=O)C3CCCCC3)ccc21 | 105 | 98 | 104 | 12
COc1cccc(C2C(C(=O)O)c3ccccc3C(=O)N2C)c1OC (configuration not stated) | 101 | / | / | -16
COC(=O)COc1c(C(=O)OC)sc2ccccc12 | 102 | 105 | 91 | -36
O=C(c1ccc2c(=O)n3c(nc2c1)CCC3)N(Cc1ccco1)Cc1cccs1 | / | 100 | 72 | -13
Cc1ccccc1C(=O)N1CCC(C(=O)N2C(=O)c3cccc(N)c3C2=O)CC1 | / | 77 | 73 | -96
CCOC(=O)C1(Cc2ccc(O)cc2)NC(c2ccco2)C2C(=O)N(c3ccccc3F)C(=O)C21 (configuration not stated) | 100 | 111 | 76 | 15
COc1cccc(C(=O)Nc2cccc(-c3nc(-c4ccccc4)no3)c2)c1 | 110 | / | / | -6
Cc1nc(-c2ccc(F)cc2)c(CC(=O)N(Cc2ccco2)Cc2cccs2)s1 | / | 94 | 81 | -10
O=C(NCCc1c[nH]c2ccccc12)c1cccc(N2C(=O)CCS2(=O)=O)c1 | 104 | / | / | -16
CC(C)c1ccc(NC(=O)c2coc(=O)c3ccccc23)cc1 | 101 | 119 | 88 | /
CCOC(=O)c1cc(NC(=O)N2CCN(c3ccc(F)cc3)CC2)c(C)nc1C | 98 | / | / | 10
CCc1cccc(C)c1NC(=O)c1cc(S(=O)(=O)N2CCOCC2)cn1C | 104 | 120 | 98 | -6
Cc1noc(C)c1COC(=O)[C@@H](NC(=O)Cc1cccc2ccccc12)C(C)C | / | 108 | 102 | -6
Cc1nn(-c2ccccc2)c2sc(C(=O)NC(=S)NCc3ccco3)cc12 | 105 | 103 | 95 | 2
C=CCOC(=O)C1=C(C)NC2=C(C(=O)CC(c3ccc(OC)cc3)C2)C1c1cc2c(cc1Cl)OCO2 (configuration not stated) | 98 | / | / | -30
CCN(c1ccc(NC(=O)CN(C)Cc2ccccc2)cc1)C(C)C | / | 92 | 96 | -8
CN(C)C(CNC(=O)c1cc2ccccc2o1)c1ccco1 (configuration not stated) | / | 98 | 82 | -24
CCCN(CCC)CCCNC(=O)c1cn(CC)c2ccc(S(=O)(=O)N(C)C3CCCCC3)cc2c1=O | 101 | 94 | 90 | -36
Cc1cccc(CCNC(=S)Nc2ccc3nc4n(c(=O)c3c2)CCCCC4)c1 | 105 | 102 | 96 | /
O=C(/C=C1\Sc2ccccc2NC1=O)NCCN1CCN(c2ccccc2)CC1 | 106 | 98 | 81 | -35
O=c1[nH]c(N2CCc3ccccc32)nc2c1CCCC2 | 96 | 85 | 86 | /
O=C(NCc1ccccc1)c1ccc(N2C(=O)CCS2(=O)=O)cc1 | 103 | / | / | -14
Fc1ccccc1Nc1nn(CN2CCCC2)c(=S)s1 | / | 67 | 66 | -42
Cc1cccc(C)c1NC(=O)CCCSc1nnc(-c2ccccc2)o1 | / | 90 | 109 | -2
N#Cc1cc2c(nc1SCC(=O)Nc1ccc(S(=O)(=O)Nc3ncccn3)cc1)CCC2 | 105 | 97 | 88 | -9
CCN1CCN(C(C)C(=O)NC(c2ccccc2)c2ccccc2)CC1 (configuration not stated) | 105 | 114 | 81 | -14

Ordered by molar mass (ascending): part of the list above
SMILES | GIV-Gai inh | Sa growth inh | Sa growth inh second temp | HCMV UL50-53 inh
Cn1cnnc1-c1ccc(N)cc1 | / | 114 | 97 | -7
Cn1ncc2c1ncn1nc(-c3ccncc3)nc21 | 104 | 97 | 86 | 5
Cn1cnc2cc(NC(=O)C3CCCCC3)ccc21 | 105 | 98 | 104 | 12
Cc1cccc(NC(=O)Nc2cccc(C(F)(F)F)c2)n1 | 97 | 84 | 82 | /
Fc1ccccc1Nc1nn(CN2CCCC2)c(=S)s1 | / | 67 | 66 | -42
O=C1Nc2ccc(S(=O)(=O)N(CCO)CCO)c3cccc1c23 | 105 | 63 | 90 | /
COC(=O)c1ccc(CSc2nc3ccccc3c(=O)n2N)cc1 | / | 68 | 78 | -6
O=S(=O)(NNc1ccnc2cc(Cl)ccc12)c1ccccc1F | / | 83 | 72 | -31
COc1cccc(C(=O)Nc2cccc(-c3nc(-c4ccccc4)no3)c2)c1 | 110 | / | / | -6
CCOC(=O)c1cc(NC(=O)N2CCN(c3ccc(F)cc3)CC2)c(C)nc1C | 98 | / | / | 10
O=C(c1ccc2c(=O)n3c(nc2c1)CCC3)N(Cc1ccco1)Cc1cccs1 | / | 100 | 72 | -13
Cc1cccc(CCNC(=S)Nc2ccc3nc4n(c(=O)c3c2)CCCCC4)c1 | 105 | 102 | 96 | /
O=C(CCc1nc2cccnc2n1Cc1cccs1)N1CCC2(CC1)OCCO2 | 132 | 101 | 85 | -28
COc1ccc2c(CNC3CCCCCC3)c(C(=O)O)n(Cc3ccccc3F)c2c1 | 112 | 101 | 83 | /
CCCCN(CC)c1ncnc2c1sc1nc(N3CCOCC3)c3c(c12)CC(C)(C)OC3 | 102 | 89 | 95 | /
N#Cc1cc2c(nc1SCC(=O)Nc1ccc(S(=O)(=O)Nc3ncccn3)cc1)CCC2 | 105 | 97 | 88 | -9
O=C(CCCn1c(=O)c2sccc2n(CC(=O)NCc2ccco2)c1=O)NCc1ccco1 | 102 | 99 | 88 | -12
CCOC(=O)C1(Cc2ccc(O)cc2)NC(c2ccco2)C2C(=O)N(c3ccccc3F)C(=O)C21 (configuration not stated) | 100 | 111 | 76 | 15
COc1ccccc1NC(=O)c1sc2nc3n(c(=O)c2c1C)N=C(c1cccc(Br)c1)CS3 | 102 | 103 | 82 | /

2 compounds picked at random from those above, as already listed:
SMILES | GIV-Gai inh | Sa growth inh | Sa growth inh second temp | HCMV UL50-53 inh
CCN1CCN(C(C)C(=O)NC(c2ccccc2)c2ccccc2)CC1 (configuration not stated) | 105 | 114 | 81 | -14
CCCN(CCC)CCCNC(=O)c1cn(CC)c2ccc(S(=O)(=O)N(C)C3CCCCC3)cc2c1=O | 101 | 94 | 90 | -36
